Vaccinia Venus – inhibitors of vaccinia virus (Venus reporter); Vaccinia virus Venus reporter expression, fluorescence; Potency, µM (titrated, usually from 36.5 µM), for the others: top-dose activity change, negative = inhibition, actives largely listed as inhibitors; 330,000 compounds, 0.46% hits; active means well fitted inhibition curve with a large enough effect; inconclusive means small, poorly fitted or top-dose-only effect; inactive means no such curve, though single readings can be large or run the other way; tested in A549 cells; note: nearly all actives have a fitted effect of over 30% in size; inactives centre near -10
Vaccinia mCherry – vaccinia inhibition (mCherry reporter); Vaccinia virus mCherry reporter infection, fluorescence; about a quarter of the inactives have no number; Potency, µM (top dose mostly 36.5 µM), for inactives: at the top dose activity change, negative = inhibition, most hits filed as inhibitors; 310,000 compounds, 0.63% hits; AID 720579; active = well fitted inhibition curve with a large enough effect; inconclusive = small, poorly fitted or top-dose-only effect; inactive = no such curve, though single readings can be large or run the other way; tested in A549 cells; note: nearly all actives have a fitted effect of over 35% in size; inactives centre near -10
The depositor's hits bear a star; i = inactive; ? = inconclusive; nt = no result given; & = joins results of further samples; [ ] = remark or other dose. % is set by controls: 0 for no effect and ±100 for the full control effect; potency is the fitted concentration of half-maximal effect.

Compound	Vaccinia Venus	Vaccinia mCherry
C[C@@H]1O[C@@H](O[C@H]2[C@H](O)[C@@H](O)[C@H](Oc3c(-c4ccc(O)cc4)oc4cc(O)cc(O)c4c3=O)O[C@@H]2CO)[C@H](O)[C@H](O)[C@H]1O	-7%	i
C[C@]12CCC(=O)C=C1C=CC1C2CC[C@@]2(C)C1CC[C@@]21CCC(=O)O1 (some centres undefined)	-5%	?
COc1ccc(-c2nc3c(Cl)cc(C(F)(F)F)cn3c2Cc2ccsc2)cc1OC	5%	20%
CCN(CC)c1ccc(Nc2nc(-c3cccnc3)cs2)cc1	-23%	-24%
COc1ccc(C2=NN(CCC(=O)NC3CCCCC3C)C(=O)CC2)cc1 (centres undefined)	-17%	i
Cc1cc(CCC(=O)O)c(C)cc1CCC(=O)O	15%	nt
CC1(C)S[C@@H]2C(C(=O)OCc3ccccc3)NC(=O)N2C1C(=O)OCc1ccccc1 (some centres undefined)	-6%&-9%	i
CCSC(=O)CCCCCCCCCCCO	-10%	-14%

(list continues)
Compound	Vaccinia Venus	Vaccinia mCherry
CCc1ccccc1N(CC(=O)NC1CCCCC1)C(=O)CNC(=O)c1ccco1	-5%	-10%
COc1ccc(/C=C\C(=O)c2c(O)ccc3c(C)cc(=O)oc23)cc1	-14%	-9%
Cc1ccccc1Cn1nc(C)c(NC(=O)C2c3ccccc3Oc3ccccc32)c1C	-9%	-19%
COC(=O)c1[nH]c2cccc(OC)c2c1NC(=O)CN1CC2(C)CC1CC(C)(C)C2 (centres undefined)	-14%	nt
CCOc1cc(S(=O)(=O)n2nc(C)cc2C)ccc1Br	0%	5%
COc1cc(/C=C/C(=O)O)cc(S(=O)(=O)NCc2ccco2)c1OC	-5%	i
COc1ccc(CCNC(=O)c2c([S-])n(-c3ccc(C)cc3)c3cccc[n+]23)cc1	-13%	-18%
COc1ccc(C(O)CNc2ccc(C)cc2)cc1 (centres undefined)	-15%	-22%

Additional records follow.
Compound	Vaccinia Venus	Vaccinia mCherry
O=C(O)CC1(CC(=O)Nc2ccc3sccc3c2)CCCCC1	-17%	i
CC(=O)c1cccc(NCc2ccccc2-c2nnc(-c3ccccc3)o2)c1	-7%	-15%
S=c1[nH]cc(Cc2ccccc2)s1	?	?
Cc1ccc(N2C(=O)NC(=O)C(CCc3ccncc3)(Cc3cccc(Cl)c3Cl)C2=O)cc1 (centres undefined)	-13%	-17%
O=C(CNC(=O)c1ccc(S(=O)(=O)N2CCCC2)cc1)N/N=C/c1ccccc1Cl	-15%	-16%
Cc1ccc(NC(=O)CN2C(=O)/C(=C\c3cccs3)SC2=S)cc1	-12%	-10%
CCc1ccc(C2=CC(c3cccc(C)c3)n3c(nc4ccccc43)N2)cc1 (centres undefined)	42%[activator]	-26%
O=C(NCC1CCCO1)c1ccc2c(c1)ncn2-c1cccc(F)c1 (centres undefined)	-3%	-17%

Next structures
Compound	Vaccinia Venus	Vaccinia mCherry
COC(=O)/C(=C/c1ccco1)NC(=O)c1ccco1	8%	-18%
Cc1ccc(CNS(=O)(=O)c2ccc3[nH]c4c(c3c2)CCCC4)cc1	2%	-1%
CCOc1ccc(C2C(C(=O)c3ccco3)=C(O)C(=O)N2CCCn2ccnc2)cc1OC (centres undefined)	-6%	?
CCc1cccc(CC)c1-n1c(-c2cccnc2)n[nH]c1=S	-3%	i
C/C(=N\NC(=O)CNc1cccc(C)c1)c1ccc(Br)s1	-20%	-6%
CCc1nnc(NC(=O)CCN2C(=O)c3ccccc3S2(=O)=O)s1	-7%	-9%
CCCCN1C(=O)C(=O)N(CC(=O)Nc2ccccc2C(=O)OCC)C1=O	-20%	-4%
CCCCNC(=O)NC1CCCC1	-5%	i

(cont.)
Compound	Vaccinia Venus	Vaccinia mCherry
COc1ccc(C(CNC(=O)c2ccc(C)cc2)N2CCOCC2)cc1 (centres undefined)	-3%	-9%
COc1cc(-c2nnc(SCC(=O)Oc3ccccc3)o2)cc(OC)c1OC	-12%	-12%
CCc1ccccc1N(CC)C(=O)C1CCN(c2ncnc3c2nc2n3CCCCC2)CC1	?	-15%
Cc1cc(NC(=O)Cc2cn3ccsc3n2)n(-c2ccccc2)n1	2%	nt
CC1(C)C[C@H](O)[C@]2(CO)[C@H](O)C[C@]3(C)C(=CCC4[C@@]5(C)CC[C@H](O)C(C)(C)C5CC[C@]43C)[C@@H]2C1 (some centres undefined)	?	-20%
C[n+]1cc(-c2ccccc2)oc1-c1ccccc1	3%	12%
CCCN(CCC)C(=O)c1cc(-c2ccc3c(c2)OCO3)nc2ccccc12	-17%	i
O=c1c(Cl)c(N2CCOCC2)cnn1-c1ncc(C(F)(F)F)cc1Cl	-20%	-13%

The results go on:
Compound	Vaccinia Venus	Vaccinia mCherry
CCN(CC)C(=O)C1CCCN(Cc2ccc3c(c2)OCO3)C1 (centres undefined)	4%	-15%
O=C1c2cccc3cccc(c23)C(=O)N1CC1CCCO1 (centres undefined)	-5%	4%
Cc1cccc(Cn2ccc(NC(=O)c3ccc4c(c3)OCO4)n2)c1	?	-16%
CCOC(=O)CC[C@H](NC(=O)Cn1cnc(C(=O)Nc2ccc(C)c(C)c2)n1)C(=O)OCC	-10%	i
Cc1ccc2nc(-c3cccnc3SCC(=O)N3c4ccccc4CC3C)[nH]c2c1 (centres undefined)	-13%	-20%
Cc1ccc(OCc2cc(=O)n3ccsc3n2)c(NC(=O)c2ccco2)c1	-16%	-19%
Cc1ccc(CNC(=O)COc2ccc(S(=O)(=O)N3CCOCC3)cc2)cc1	-5%	-28%
C#CCOCCOCCOCCNc1nc(N2CCN(C(=O)Cn3cc(CCCCN)nn3)CC2)nc(N2CCN(C(=O)[C@H](Cc3ccc(O)cc3)n3cc(CCO)nn3)CC2)n1	-1%	-12%

The results go on:
Compound	Vaccinia Venus	Vaccinia mCherry
COc1ccc(C(=O)N/C(=C\c2cn(S(=O)(=O)N(C)C)c3ccccc23)C(=O)N2CCN(C)CC2)cc1OC	-13%	?
COc1ccc(CC(=O)N/N=C(\C)CC(=O)Nc2ccc(N(C)C)cc2)cc1	-12%	?
COc1ccc(N(C)C(=O)CCS(=O)(=O)c2cccc3nsnc23)cc1	-5%&-7%	10%
CCCCOC(=O)c1c(N)n(-c2ccc(OC)cc2OC)c2nc3ccccc3nc12	6%	-3%
CC(C(=O)C12CC3CC(CC(C3)C1)C2)N1CCOCC1 (centres undefined)	1%	-5%
Cc1c(Br)c([N+](=O)[O-])nn1CCCC(=O)N1CCN(c2ccccc2)CC1	-9%	-28%
O=C1c2ccccc2C(=O)N1Cc1nc2ccccc2c(=O)n1-c1cccnc1	-13%	nt
COCCCNc1nc2c(-c3ccc(Cl)cc3)nnn2c2ccccc12	-2%	-15%

New compounds follow.
Compound	Vaccinia Venus	Vaccinia mCherry
COc1ccc(N2CCN(C(=O)c3cc4c(-c5ccccc5F)nn(C)c4s3)CC2)cc1	-13%	-23%
CCOC(=O)NC(=O)CSc1cc(C)c2cc(C)cc(C)c2n1	-8%	i
CCOc1ccccc1NC(=O)c1ccccc1-c1nc(-c2ccccc2OC)no1	-18%	nt
COc1ccc(S(=O)(=O)N2CCN(C(=S)NC3CCCCC3)CC2)cc1	-7%	i
CC(C)N(Cc1ccccc1)C(=O)CN1C(=O)COc2ccc(S(=O)(=O)N3CCCCCC3)cc21	-18%&-8%	-3%&-15%
CC(C)(C)N1C(=O)c2ccc(C(=O)NCc3ccco3)cc2C1=O	-10%	-13%
CCCN1Cc2cccc(C(=O)N3CCN(c4ccc(OC)cc4)CC3)c2C1=O	-3%	-23%
COc1ccc2c(c1)C(C)=CC(C)(C)N2S(=O)(=O)c1ccc(C)cc1	-23%	?

Record cards, as listed above. Values in the order: Vaccinia Venus | Vaccinia mCherry
Listed for `CCCN1Cc2cccc(C(=O)N3CCN(c4ccc(OC)cc4)CC3)c2C1=O` : -3% | -23%
Listed for `COc1ccc(S(=O)(=O)N2CCN(C(=S)NC3CCCCC3)CC2)cc1` : -7% | i
Listed for `COc1ccc(N2CCN(C(=O)c3cc4c(-c5ccccc5F)nn(C)c4s3)CC2)cc1` : -13% | -23%
Listed for `CC(C)N(Cc1ccccc1)C(=O)CN1C(=O)COc2ccc(S(=O)(=O)N3CCCCCC3)cc21` : -18%&-8% | -3%&-15%
Listed for `CC(C)(C)N1C(=O)c2ccc(C(=O)NCc3ccco3)cc2C1=O` : -10% | -13%

(further entries)
Compound	Vaccinia Venus	Vaccinia mCherry
COc1ccc(C(=O)OCC(=O)NC2CCCCCCC2)cc1OC	-22%	-16%
CCCCn1c(=O)c(C(=O)Nc2ccccc2C)c(O)c2ccccc21	-10%	i
COc1ccc2ccc(C(C)(C(C)=O)C(=O)OC(C)C)cc2c1 (centres undefined)	-19%	-7%
Fc1ccc(CN2CC[C@H]3C=CCc4cccc(c43)C2)cc1	-16%	i
CCC1=C(OC(=O)N(CC)CC)N2C(=O)OC(=NCc3ccccc3)[C@]2(C)[C@H]2C1=CC[C@H]1C(=O)N(CC)C(=O)[C@H]12	-12%	?
O=C(CSc1nc2ccccc2n1CC(=O)N1CCCCC1)N1CCCCC1	4%	i
COc1cc2c(cc1OC)C(C)N(C(=O)c1cccc([N+](=O)[O-])c1)CC2 (centres undefined)	-17%	-12%
O=C1C[C@@H]2c3c(cccc3CN1Cc1ccc(Br)cc1)C[C@@H](O)[C@H]2O	-11%&-12%	i

Remaining list, next part:
structure	Vaccinia Venus	Vaccinia mCherry
CC(C)Nc1ncnc2c1ncn2[C@H]1CN(Cc2ccc(Cl)cc2)C[C@@H](CO)O1	-17%	i
CCc1ccccc1Nc1cc(C(=O)NCc2ccc(C)cc2)c2ccccc2n1	-3%	-8%
COc1ccccc1CC(NC(C)=O)C(=O)NC1CCN(S(=O)(=O)c2ccccc2)CC1 (centres undefined)	-13%	-28%
O=C(CSc1ncnc2c1cnn2-c1ccccc1)NCC1CCCO1 (centres undefined)	-26%	-18%
CCc1ccc(NC(=S)N2CCN(C)CC2)cc1	-7%	-4%
COc1cccc(-c2cc(C(=O)N3CCN(S(=O)(=O)c4ccc(Br)cc4)CC3)[nH]n2)c1	-22%	-25%
Cc1cc(C(=O)NCc2ccccc2C)c2c(C)nn(-c3cccc(F)c3)c2n1	-17%	-7%
COc1cc(/C(C#N)=C/c2cccc3ccccc23)c([N+](=O)[O-])cc1OC	-8%	i
CCCSc1nnc2n(C)c(=O)c3c4c(sc3n12)CCC4	?	i
O=C(C1COc2ccccc2O1)N1CCN(c2nc3ccc(F)cc3s2)CC1 (centres undefined)	-12%	-9%
O=c1c(Cc2ccc(Cl)cc2Cl)c(O)ccn1CCCN1CCOCC1	1%	i
O=C1CCCN1C(=O)CSc1ncnc2sccc12	-8%	-1%
CCn1c(CNC(=O)COc2ccc(C(C)C)cc2)nnc1SCC(=O)Nc1ccccc1F	-19%	-7%
COc1ccc(NC(=S)N2CCNC(=O)C2CC(=O)Nc2ccc(C)cc2)cc1 (centres undefined)	-21%	i
CCOc1ccccc1NC(=O)C(NS(=O)(=O)c1cccc2nsnc12)c1ccccc1 (centres undefined)	-9%	-7%
CC1(C(=O)NS(=O)(=O)c2cccs2)CCN1C(=O)c1ccco1 (centres undefined)	-9%	20%
C[C@@H]1CN([C@H](C)CO)C(=O)CCCn2nncc2CO[C@@H]1CN(C)C(=O)Nc1ccnc(N2CCOCC2)c1	-8%	i
C/C=C/Cn1c(SCc2ccc(C)cc2)nc2c1c(=O)[nH]c(=O)n2C	?	nt
CN(C)C1(CNC(=O)C2CCC(=O)N(CCc3ccc(Cl)cc3)C2)CCCCC1 (centres undefined)	-3%	i
CCOC(=O)c1c(NC(=O)c2cc(CC(C)C)on2)sc(C(C)=O)c1C	-2%&-4%	-9%&-2%
Cn1c(=O)c2c(nc(CN3CCN(c4cccc(Cl)c4)CC3)n2CCc2ccccc2)n(C)c1=O	-25%	nt
Cc1ccc(C(=O)NC2CCN(S(=O)(=O)c3ccccc3)CC2)cc1	-10%	-11%
CCOC(=O)c1c(OCC)[nH]c2c1cc(O)c1ccccc12	-27%	-28%
Cc1ccc2c(c1)c1c(c(=O)n(-c3ccccc3)c(=O)n1Cc1ccccc1C)n2C	-23%	?
Cc1nc2nc(SCC(=O)Nc3cccc(Cl)c3)nn2c(C)c1Cc1ccccc1	-26%	-29%

A second format for two compounds above:
CCc1ccc(NC(=S)N2CCN(C)CC2)cc1
- Vaccinia Venus: -7%
- Vaccinia mCherry: -4%

O=C(O)CC1(CC(=O)Nc2ccc3sccc3c2)CCCCC1
- Vaccinia Venus: -17%
- Vaccinia mCherry: i

Later entries:
structure	Vaccinia Venus	Vaccinia mCherry
C#CCOCCOCCOCCNc1nc(N2CCOCC2)nc(N2CCN(C(=O)[C@H](CCC(=O)O)n3cc([C@@H](N)CCCCN)nn3)CC2)n1	-7%	i
Cc1ccc(-c2nc(S(=O)(=O)c3ccccc3)c(SCC(=O)NCC3CCCO3)o2)cc1 (centres undefined)	-8%	?
Cc1ccc(CNC(=O)c2ccccc2NC(=O)c2nsc3ccccc23)cc1	?	?
CC1=C(n2ccnc2)CCC1=O	-5%	-19%
COc1ccc(Cc2nnc(NC(=O)c3cccc([N+](=O)[O-])c3)s2)cc1	-1%	-5%
c1ccc(CN2CCN(C(c3ccccc3)c3ccccc3)CC2)cc1	-8%	-18%
O=C1c2cccc(-c3ccc(C(F)(F)F)cc3)c2C2CCCCN12 (centres undefined)	1%	i
O=C(O)c1ccc(N2CC3CC(C2)c2cccc(=O)n2C3)c(NC(=S)Nc2ccc(Cl)cc2Cl)c1 (centres undefined)	-10%	i
S=C(NCCc1ccccn1)Nc1ccc(Cl)c(Cl)c1	-11%	-22%
O=C(COC(=O)c1cc(=O)[nH]c2ccccc12)c1cccs1	-12%	0%
Cc1cc(C)c(C)c(S(=O)(=O)Nc2ccc(O)cc2)c1C	?	nt

High-throughput results deposited in PubChem by National Center for Advancing Translational Sciences (NCATS).
